Bioassay records: PubChem, ICCB-Longwood Screening Facility, Harvard Medical School
BasE inh: blocks the Acinetobacter baumannii siderophore enzyme BasE; AID 485350; actives 0.1% (n = 84,000); inhibition, % (concentration not given with the values); purified BasE, fluorescence polarization binding displacement;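 active = both replicates above 25% with normal brightness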;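 note: 0% = negative plate control signal and 100% = positive plate control signal; stock transfer was 100 nL into about 30 µL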
KSHV LANA nucl: inhibitors of KSHV LANA binding to nucleosomes; FITC-LANA1-23 / chicken nucleosome fluorescence polarization; hits give low values; z-score (test concentration not listed); actives 0.3% (n = 51,000); AID 720717;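 active = both repeat wells score below -2 in polarization z-score versus plate sample wells, excluding overly bright wells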;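 note: 100 nL library stock added to about 30 µL; numbers are from one replicate; some results filed as inactive read as strong as hits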
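test system = FITC-LANA peptide and chicken nucleosomes | amount = 240 nM purified chicken nucleosomes (480 nM peptide binding sites), final | reagent = 50 nM FITC-LANA1-23 probe | medium = TEN-BT buffer, pH 7.5 | doses = single compound addition by pin transfer, 100 nL per well | timing = 10–45 min, room temperature | detection = fluorescence polarization | repeats = duplicate plates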
An asterisk follows results filed as active; / = no result given; & = joins results of further samples. Some of the compounds tested; the hit share may differ from the screen's.

No.	Structure	KSHV LANA nucl	BasE inh
1	COC(=O)c1cnc(NN2C(=O)CCC2=O)nc1C(F)(F)F	/	1.5
2	CCC(CC)N1CCN(S(=O)(=O)CC)CC1	-1.2	0.5
3	Cc1ccc(Oc2nc(Cl)nc(Oc3ccc(C)cc3)n2)cc1	/	6.7
4	Cc1ccc(Cn2c(CCCNC=O)nc3ccccc32)cc1	0.7	-1.7
5	COc1ccc(NCc2cn[nH]c2-c2ccccc2)c(OC)c1	-0.38	0.3
6	NCCSc1n[nH]c(=O)[nH]c1=O	/	2.0
7	Cc1cc(SCC2=NNC(=O)C2)c(Cl)cc1Cl	0.56	1.2
8	CC(=O)Oc1cc2c(C(=O)N3CCOCC3)c(C)oc2c2ccccc12	/	2.6
9	Cc1onc(-c2c(Cl)cccc2Cl)c1NC(=O)Nc1ccc(Cl)cc1	-0.3	0.0
10	CC1CCCC(C)N1C(=O)COc1ccc(C(=O)N=Nc2c(O)[nH]c3ccccc23)cc1 (configuration not stated)	/	1.6
11	Cc1cc2c(c(=O)o1)C(C(C)C)C(C#N)=C(N)O2 (configuration not stated)	-0.99	1.1
12	COCc1cc(=O)[nH]c(/N=C(\NC(=O)c2ccc(C)cc2)Nc2cccc(Cl)c2)n1	/	1.8
13	COc1cc(C(=O)Nc2ccccc2C(=O)OCc2cc(=O)n3oc(C)cc3n2)cc(OC)c1OC	-1.7	0.5
14	O=C1CCC2(C(=O)O)N1c1ccccc1C(=O)N2C1CC1 (configuration not stated)	/	-0.5
15	Cc1cc(C(=O)NCC2COc3ccccc3O2)no1 (configuration not stated)	/	-0.9
16	COC(=O)c1ccc(COC(=O)C2COc3ccccc3O2)o1 (configuration not stated)	/	3.3
17	COC(=N)c1nccnc1SCc1ccc(F)cc1	-0.67	0.9
18	Cc1ccc2[nH]c(=O)c(CN(C)C(=O)C(C)C)cc2c1	-0.12	-1.3
19	CN1C(=O)C(/C(N)=N\NC(=O)c2ccccc2)C2CC1(C)Oc1ccccc12 (configuration not stated)	1.7	-2.6
20	O=C(NC1CCCC1)c1n[nH]c(=O)c2ccccc12	-1.1	0.1
21	CCN(CC)CC(N)c1ccccc1 (configuration not stated)	/	0.2
22	O=C1Nc2ccccc2C12OCCCO2	1	-0.6
23	CCCn1c(C)cc(/C=C(\C#N)C(=O)N2CCN(S(=O)(=O)c3ccccc3C(F)(F)F)CC2)c1C	/	-1.7
24	CC(Cc1cccs1)NS(=O)(=O)c1ccccc1 (configuration not stated)	/	1.7
25	O=C(CSc1nnc(-c2ccc(Cl)cc2)o1)N1CCCC1c1ccc2c(c1)OCCCO2 (configuration not stated)	/	0.9
26	N#Cc1c2ccc(O)cc2n2ccccc12	/	15
27	CN(C)c1cccc(C(=O)Oc2ccccc2Cl)c1	/	0.8
28	O=c1cc(CSc2nnc(COc3ccc(Cl)cc3)n2Cc2ccco2)nc2ccc(Br)cn12	/	-0.7
29	CC(Sc1nnc(Nc2ccccc2F)s1)C(=O)N1CCc2ccccc21 (configuration not stated)	/	-1.2
30	CSc1nc(-c2ccccc2)c(C#N)c(N2CCCC2)n1	-1.5	-2.6

(next part)
No.	Structure	KSHV LANA nucl	BasE inh
31	Cn1cnc2cc(NCc3ccc(Br)cc3)ccc21	-0.2	0.3
32	Cn1c(SCc2ccc(C(F)(F)F)cc2)nnc1C(F)(F)F	/	-3.2
33	Cc1noc(C)c1CSCC(=O)Nc1nc(SCc2ccc(Cl)cc2)n[nH]1	/	-1.6
34	CC1=C(O)C(=O)/C(=C/N(C)C)C1	/	2.4
35	CCN(CC)C(=O)c1csc(Nc2ccc(C)cc2)n1	0.21	1.6
36	Nn1cc(-c2ccccc2)nc1SCC(=O)Nc1cccc2nsnc12	/	-0.2
37	CCOC(=O)c1ccccc1NC(=O)COC	0.12	5.4
38	NC(=O)c1ccc(NC(=O)COc2ccc(F)cc2Cl)cc1	/	0.1
39	CCN(C)C(=O)/C=C/c1cnc2ccccc2c1	-1.3	/
40	O=C1/C(=C/c2cccs2)COc2ccccc21	/	0.9
41	COC(=O)c1ccc(S(=O)(=O)N2CCCN(c3nccc(C(F)(F)F)n3)CC2)n1C	1.1	-1.2
42	COc1ccc(Br)cc1CSCCC#N	0.27	1.7
43	COCC(C)n1c(SCc2ccc(C(=O)OC)o2)nc2ccccc2c1=O (configuration not stated)	/	-0.8
44	Nc1nc(Cl)cc(N2CCOCC2)n1	0.042	1.8
45	CCOC(=O)C1CCCN(C(=O)CSc2ccc(NC(C)=O)cc2)C1 (configuration not stated)	/	4.0
46	c1coc(-c2nc3sc4c(NCCN5CCOCC5)ncnc4c3c3c2CCCC3)c1	0.62	-0.2
47	Cc1onc(-c2ccccc2)c1C(=O)Nc1sccc1C#N	/	-6.7
48	CC[C@]1(O)C[C@H]2CN(CCc3c([nH]c4ccccc34)[C@H](C)[C@H]2c2cc3c(cc2OC)N(C)[C@H]2[C@@](O)(C(=O)OC)[C@H](C)[C@]4(CC)C=CCN5CC[C@]32[C@@H]54)C1	-0.26	/
49	CCN1C(=O)c2cccc3c(S(=O)(=O)N4CCCCCC4)ccc1c23	-0.35	2.4
50	COc1cccc(N(C)C(=O)/C=C/c2ccc(F)cc2)n1	/	-1.1
51	C=CCN(CC=C)CC(O)Cn1c(-c2ccc(OC)cc2)cc2ccccc21 (configuration not stated)	/	0.2
52	Cc1ccc(C)n1-c1c(C)n(C)n(-c2ccccc2)c1=O	/	-1.2
53	CC(NCc1ccccc1O)c1ccccc1 (configuration not stated)	/	-0.6
54	O=S(Cc1ccccc1)c1ccccc1 (configuration not stated)	-0.045	-0.1
55	Cc1cc(SCC(=O)NC(C)(C#N)C(C)C)nc2ccccc12 (configuration not stated)	/	-1.2
56	CSc1nc(NCCOC(=O)c2ccco2)c(C#N)c(-c2ccc(C(C)(C)C)cc2)n1	2	-0.5
57	CCOC(=O)c1[nH]c(COC(=O)CCc2ccccc2)c(C(=O)OCC)c1C	/	3.2
58	COC(CN(Cc1nc(N)nc(Nc2ccc(C)cc2)n1)Cc1nc(N)nc(Nc2ccc(C)cc2)n1)OC	/	-0.4
59	O=S(=O)(N=S(N1CCOCC1)N1CCOCC1)c1ccccc1	0.82	3.8
60	COc1cccc(NC(=O)CSc2nnc3scc(-c4ccccc4)n23)c1	1.5	12

Next part:
No.	Structure	KSHV LANA nucl	BasE inh
61	Nc1cc(N)nc(SCC(=O)c2ccccc2)n1	-0.82	-0.8
62	O/N=C/c1ccccc1Br	/	2.9
63	FC(F)Oc1ccc(-c2cn3c(n2)sc2ccccc23)cc1	/	1.0
64	CCCN(CCC)Cc1c(C(=O)N/N=C/c2ccoc2)nnn1-c1nonc1N	-0.86	-1.1
65	Cc1noc(C)c1COC(=O)c1cccc(S(=O)(=O)N2CCCCC2)c1	/	1.0
66	NCCc1cnn(-c2ccccc2)c1	-0.73	-2.8
67	O=C(NCc1ccco1)c1nc(-c2cccc(F)c2)n2c1CCCCC2	0.54	-0.2
68	COc1ccc(CN(C)C(=O)c2cnc(OC)cc2C(F)(F)F)c(OC)c1	/	1.1
69	CCOC(=O)N1CCC(=NNc2nc3ccccc3[nH]2)CC1	/	-0.4
70	COc1cccc(OC)c1OC(=O)c1cccc(S(=O)(=O)N(C)OC)c1	/	-0.4
71	Cc1cc(-n2c(C)cc(/C=C/C(=O)O)c2C)no1	/	0.3
72	COCCn1cnnc1SCC(=O)Nc1ccc(N2CCCCC2)cc1	/	1.5
73	CCN1CCC(N(Cc2ccc(F)cc2)C(=O)Nc2cc(C)ccc2OC)CC1	-0.019	-1.2
74	COc1ccc(CNC(=O)c2ccc[nH]2)cc1	1.8	/
75	CC1(C)CC(=NNC(=O)CC#N)CC(C)(C)N1	-0.4	1.5
76	CCCCn1c(O)c(N=NC(=O)COc2ccccc2C)c2cc(OC)ccc21	/	3.4
77	O=S(=O)(c1ccc(Cl)cc1)C(F)(F)C(F)(F)C(F)(F)F	/	0.9
78	CC(C(=O)Nc1ccccc1)N1CCCCC1 (configuration not stated)	/	1.0
79	Cc1cc(C(F)F)n2ncc(C(=O)NCc3ccccc3)c2n1	0.68	1.0
80	Cc1ccc(CNC(=S)NCCCn2nccc2C)cc1	0.15	0.9
81	O=C(COC(=O)C1CCN(C(=O)c2ccc(Cl)cc2)CC1)Nc1cccc2nsnc12	/	1.9
82	COc1cccc(/C=C2\SC(=S)N(C(Cc3ccccc3)C(=O)O)C2=O)c1 (configuration not stated)	/	3.1
83	CCN(c1ccc2oc3ccccc3c2c1)S(=O)(=O)c1ccccc1C#N	/	0.0
84	Cc1cccc(-c2noc(CCCC(=O)NC3CCCCC3)n2)c1	2	-1.5
85	COc1ccc(F)cc1C(O)CSCc1ccccc1 (configuration not stated)	/	0.5
86	S=C(c1c[nH]c2ccccc12)N1CCCCC1	-0.59	-0.3
87	NC(=O)NC1(C(F)(F)F)Oc2ccccc2O1	/	1.8
88	COCCn1c(SCC(=O)OC2CCCCC2)nnc1-c1ccco1	-0.098	-1.5
89	NC(=S)N/N=C/c1c(Sc2ccc(Cl)cc2)nc2sccn12	-0.047	0.5
90	CC1=C(C#N)C(=O)N(C)C(=O)/C1=C/c1ccc(-c2ccc(Cl)cc2)o1	/	1.3

Carrying on:
No.	Structure	KSHV LANA nucl	BasE inh
91	COc1ccc(CCNc2ncnc3[nH]ncc23)cc1OC	/	0.6
92	O=C(COC(=O)Cc1cccc(C(F)(F)F)c1)Nc1ccc2[nH]c(=O)[nH]c2c1	/	0.1
93	COc1ccc(C(=O)OCC#N)cc1S(=O)(=O)N1CCN(c2cccc(Cl)c2)CC1	/	1.2
94	Cc1ccc(S(=O)(=O)NC(=O)N2CCC(C)CC2)cc1	0.12	0.5
95	CCOC(=O)c1c(-c2cccs2)csc1NC(=O)C1CC=CCC1C(=O)O (configuration not stated)	/	-0.8
96	O=C(COC(=O)c1cncc(Br)c1)Nc1ccc(N2CCCCC2)cc1	/	2.7
97	C(=N\n1c(-c2ccco2)csc1=Nc1cccnc1)/c1ccccn1	/	19
98	N#CCC(=O)Nc1ccc(C(=O)OCC(=O)N2CCN(c3ccccc3)CC2)cc1	/	1.5
99	Cc1cc2oc(=O)cc(CN(C)C3CCS(=O)(=O)C3)c2cc1C(C)C (configuration not stated)	/	-2.7
100	CC1=C(C(=O)Nc2ccc(F)cc2)C(c2ccc(N3CCOCC3)cc2)C2=C(CCCC2=O)N1 (configuration not stated)	-1.1	2.4
101	O=C(NCCCN1CCN(Cc2ccccc2)CC1)c1nnc(Cc2ccc(F)cc2)o1	0.54	0.8
102	CCN(C)CC12CC3CC(CC(C3)C1)C2	/	1.5
103	O=c1cc(CSc2nc3ccccc3o2)occ1O	/	3.2
104	Cc1c(N=C2C(=O)N(C(C)C)c3ccccc32)c(=O)n(-c2ccccc2)n1C	/	1.3
105	CCCCc1nc2ccccc2n1CC(=O)Nc1sc2c(c1C(N)=O)CCCC2	/	2.4
106	c1cncc(-c2noc(-c3cc(-c4ccco4)n[nH]3)n2)c1	-0.11	3.7
107	CC(C(=O)NCc1ccncc1)n1c(C(F)(F)F)nc2ccccc21 (configuration not stated)	0.65	/
108	OCc1ccc2ccccc2n1	/	-3.2
109	COc1ccccc1N1CCN(C(=O)c2ccc3[nH]c4c(c3c2)CCCC4)CC1	/	0.4
110	COC(=O)C(Cc1ccccc1)NC(=O)c1cccc(S(=O)(=O)N(C)C)c1 (configuration not stated)	/	0.3
111	CCc1ccc(-n2cnc3ccccc3c2=O)cc1	2.2	-2.1
112	Cc1ccc(N)cc1N(C)C	0.41	-2.3
113	CN(CC(=O)NCCc1ccc(F)cc1)Cc1ccccc1	/	-2.8
114	CSc1ccccc1NC(=O)CN(C)CN1C(=O)C2CC=CCC2C1=O (configuration not stated)	/	2.0
115	CSCCC(C(=O)N1CCN(S(=O)(=O)c2ccccc2C#N)CC1)N1C(=O)c2ccccc2C1=O (configuration not stated)	/	-5.1
116	CC(C)OC(=O)Cn1cnc2ccc(Br)cc2c1=O	/	1.7
117	Cc1ccc(NC(=O)CN2C(=O)C(C)(C)Oc3ccc(C(=O)N4CCCC4)cc32)cc1	-0.037	-1.2
118	CC(=O)NN1C(=O)/C(=C2\C(=O)N(C)c3ccccc32)SC1=S	/	5.1
119	O=c1c2ccccc2c2nc3c(=O)c4ccccc4c3nc12	-0.78	1.3
120	CCCCC1=NC2(CCCC2)C(=O)N1Cc1ccc(-c2ccccc2-c2nn[nH]n2)cc1	0.059&-0.25&1.2	0.3
121	CCOC(=O)c1c(N)sc(SC#N)c1-c1ccccc1	/	0.0
122	Cc1cc2n(n1)CCCN2CC(=O)N1CCc2ccccc21	-0.13	-0.1
123	CCSCC1COC(c2cn(CC)c3ccccc23)=N1 (configuration not stated)	0.82	-2.2

Of the compounds above, 7 contain a thiophene ring, fused or not.
No.	Structure	KSHV LANA nucl	BasE inh
24	CC(Cc1cccs1)NS(=O)(=O)c1ccccc1 (configuration not stated)	/	1.7
40	O=C1/C(=C/c2cccs2)COc2ccccc21	/	0.9
46	c1coc(-c2nc3sc4c(NCCN5CCOCC5)ncnc4c3c3c2CCCC3)c1	0.62	-0.2
47	Cc1onc(-c2ccccc2)c1C(=O)Nc1sccc1C#N	/	-6.7
95	CCOC(=O)c1c(-c2cccs2)csc1NC(=O)C1CC=CCC1C(=O)O (configuration not stated)	/	-0.8
105	CCCCc1nc2ccccc2n1CC(=O)Nc1sc2c(c1C(N)=O)CCCC2	/	2.4
121	CCOC(=O)c1c(N)sc(SC#N)c1-c1ccccc1	/	0.0

Look-ups from the results shown.
entry 98 – BasE inh: 1.5
entry 110 – BasE inh: 0.3
